Source: PubChem BioAssay
MgrA-DNA mod: S. aureus MgrA-DNA binding modulation | fluorescence polarization | inhibition, %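 (about 10 µg/mL by stock and volumes)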 | 84,000 tested, 0.13% active | AID 602314;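 active means above 50% in either of two replicates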;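 further: 0% = protein plus DNA without compound and 100% = DNA alone without protein; higher means less MgrA bound to DNA so lower polarization; one replicate is shown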
Sa helicase inh: blocks Staphylococcus aureus DNA helicase; purified S. aureus helicase, fluorescence unwinding assay; about half of the hits fall short of the stated cut; inhibition, %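 (tested at about 80 µM)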; 120,000 tested, 0.05% active; AID 485395;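 active means both duplicates at 50% or more, or one of them with a favoured structure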;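 further: 0% = mean of negative control wells and 100% = mean of positive control wells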
An asterisk follows results filed as active; x = not tested or not shown.

mol,MgrA-DNA mod,Sa helicase inh
N#Cc1ccc(C(=O)N2CC=C(c3ccccc3)CC2)cc1,x,-10.0
CC(=O)Nc1ccc(Oc2cccnc2)nc1,0.5,x
COc1cc(C(=O)NC2CCS(=O)(=O)C2)cc(OC)c1OC (stereo not drawn),0.7,5.0
NC(=O)CSc1nc2c(c(C(F)(F)F)n1)CCc1ccccc1-2,0.7,11.0
COc1cc(-c2cc(C(F)(F)F)n3ncc(C(=O)NCc4cccs4)c3n2)cc(OC)c1OC,-1.6,x
Cc1cc(C)cc(NC(=O)COC(=O)C2CCN(c3ccc(C(F)(F)F)cn3)CC2)c1,x,14.0
Cn1c(CSc2nc3ncnc(N)c3[nH]2)nc2ccccc21,x,-9.0
N#CCSc1nc2c(cc1C#N)CCCCC2,4.8,4.0

Six of the entries above in order of the Sa helicase inh value, ascending:
mol,MgrA-DNA mod,Sa helicase inh
N#Cc1ccc(C(=O)N2CC=C(c3ccccc3)CC2)cc1,x,-10.0
Cn1c(CSc2nc3ncnc(N)c3[nH]2)nc2ccccc21,x,-9.0
N#CCSc1nc2c(cc1C#N)CCCCC2,4.8,4.0
COc1cc(C(=O)NC2CCS(=O)(=O)C2)cc(OC)c1OC (stereo not drawn),0.7,5.0
NC(=O)CSc1nc2c(c(C(F)(F)F)n1)CCc1ccccc1-2,0.7,11.0
Cc1cc(C)cc(NC(=O)COC(=O)C2CCN(c3ccc(C(F)(F)F)cn3)CC2)c1,x,14.0

Whole records, quoted from the list. Order of values: MgrA-DNA mod	Sa helicase inh
Shown for COc1cc(C(=O)NC2CCS(=O)(=O)C2)cc(OC)c1OC (stereo not drawn) = 0.7	5.0
Shown for CC(=O)Nc1ccc(Oc2cccnc2)nc1 = 0.5	x

(more compounds)
mol,MgrA-DNA mod,Sa helicase inh
COc1ccc2cc3c(NC(=O)Cc4cccc(C(F)(F)F)c4)n[nH]c3nc2c1,-1.9,19.0
COc1ccc(-c2nnc(Nc3cccc(C(F)(F)F)c3)c3ccccc23)cc1,1.3,5.0
COC(=O)c1ccc(Oc2nc3c(c(=O)n(C)c(=O)n3C)n2Cc2ccccc2)cc1,x,16.0
CCOC(=O)C1CCCN(C(=O)CCCC(=O)n2ncc3cc(C)ccc32)C1 (stereo not drawn),-0.9,11.0
CCCCN(C)C1=Nc2cccc3cccc1c23,x,-13.0
Cc1ccccc1S(=O)(=O)/N=C(\N)c1ccccc1,1.3,6.0
CC(O)Cn1c(=N)n(Cc2ccccc2)c2ccccc21 (stereo not drawn),x,10.0
O=C1OC(c2ccccc2)=N/C1=C\C=C\c1ccco1,3.4,7.0

Quoted from the listing.
MgrA-DNA mod result of COc1ccc(-c2nnc(Nc3cccc(C(F)(F)F)c3)c3ccccc23)cc1 stands at 1.3
Sa helicase inh result of Cc1ccccc1S(=O)(=O)/N=C(\N)c1ccccc1 stands at 6.0
Sa helicase inh result of CCCCN(C)C1=Nc2cccc3cccc1c23 stands at -13.0

The list goes on.
mol,MgrA-DNA mod,Sa helicase inh
Cc1cccc(C)c1NC(=O)COC(=O)c1cc(Cl)cc(Cl)c1,-1.7,-10.0
O=C(CC1OC(=O)c2ccccc21)c1ccc(Cl)s1 (stereo not drawn),-1.5,x
Fc1cccc(Nc2nc(-c3ccccc3)no2)c1,x,13.0
CCc1ccc(NC(=O)Cn2nnnc2N)cc1,0.7,1.0
CN(C)S(=O)(=O)c1ccc(N2CCCC2)c(C(=O)NC23CC4CC(CC(C4)C2)C3)c1,x,12.0
COC(=O)C1=C(C)NC2=C(C(=O)CC(c3ccc(N(C)C)cc3)C2)C1c1ccco1 (stereo not drawn),2.4,-4.0
Cn1c(=O)c2c(n(C)c1=O)=NC1(CCCCC1)ON=2,-0.3,2.0
O=C(CSc1ncnc2sc3c(c12)CCCC3)N/N=C/c1cccs1,x,16.0

New compounds follow:
mol,MgrA-DNA mod,Sa helicase inh
COc1cc2c3nc4n(c(=O)c3n(CC(=O)N3CCCCC3C)c2cc1OC)CCS4 (stereo not drawn),-3.2,16.0
O=C1CNC(=S)N1CCC1=CCCCC1,x,3.0
O=C(CN1C(=O)c2ccccc2C1=O)NC1CCCCC1,x,-30.0
Cc1cc(NC(=O)c2cccc(Oc3ccccc3)c2)n[nH]1,x,-5.0
COc1cc2cc(C#N)c(SCC(=O)OC(C)C)nc2cc1OC,-1.6,15.0
Cc1cc2oc(=O)cc(CN3CCCC(C)C3)c2cc1C(C)C (stereo not drawn),x,-12.0
O=C(O)CCn1ccccc1=O,-9.3,6.0
COc1ccc(NC(=O)CS(=O)CC(=O)Nc2ccc(NC(C)=O)cc2)cc1 (stereo not drawn),-0.4,14.0

Next section.
mol,MgrA-DNA mod,Sa helicase inh
O=C(O)c1cn(-c2ccc(F)cc2)c(=O)c2ccccc12,1.1,x
COC(=O)c1sc2nc3c(c(C(F)(F)F)c2c1N)CN(C(C)=O)CC3,13.8,-188.0
CC(=O)N1CC(=O)N=C1SCC(=O)Nc1nc2c(s1)CCCC2,x,15.0
CC(C)NC(=O)CSc1n[nH]c(-c2ccncc2)n1,x,-15.0
COc1ccc(-c2cnc(N)n2CC2CCCO2)cc1 (stereo not drawn),3.6,19.0
CC(=O)O/N=C(\C)c1nccs1,x,16.0
O=C(O)C1CCCN1C(=O)c1cccs1 (stereo not drawn),-1.4,x
[O-]/[N+](=C/c1ccco1)c1ccccc1,x,9.0

(further entries)
mol,MgrA-DNA mod,Sa helicase inh
CCOC(=O)/C(C#N)=C\N1CCOCC1,-0.7,-1.0
CCCN1C(=O)/C(=c2\sc3n(c2=O)C(c2ccccc2)C(C(=O)OC)=C(C)N=3)c2ccccc21 (stereo not drawn),-1.5,5.0
Cc1ccc(-n2ccnc(SCC(=O)NCc3ccco3)c2=O)cc1C,x,1.0
COc1cccc2c1NC1CC(C)CCC1C2(C)C (stereo not drawn),0.0,2.0
CN(C)c1ccc(C2C3=C(CCCC3=O)Nc3[nH]c(=O)[nH]c(=O)c32)cc1 (stereo not drawn),x,9.0
O=C(Nc1ccccc1-c1nc2ccccc2[nH]1)c1ccccc1Br,-2.6,x
Cc1nc2sc(C(=O)c3ccccc3)c(N)c2c(C)c1C(=O)Nc1ccccc1,-0.2,x
CCOC(=O)N1CCC(NS(=O)(=O)c2ccc3[nH]c4c(c3c2)CCCC4)CC1,-0.6,2.0

Later entries:
mol,MgrA-DNA mod,Sa helicase inh
Cc1nn2cc(Cl)nc2s1,x,-4.0
COC(=O)c1cnc(N(C)C2CCCCC2)c2ccccc12,x,-4.0
C#CCN1C(=O)S/C(=C/c2cc(C)n(-c3ccc(OC)cc3)c2C)C1=O,0.8,15.0
COc1ccccc1Cn1cnc2cccnc21,x,8.0
CSC(=NS(=O)(=O)c1ccc(-n2nc(C(F)(F)F)cc2-c2cccs2)cc1)SC,-1.2,x
CC(C)(C)CC(=O)NC1CCCCCCC1,-1.1,-2.0
CC(C)N(C(=O)CSc1nnc(NC2CC2)s1)c1ccccc1,x,-4.0
CCc1cc2c(=O)c(-c3nc(C)cs3)coc2cc1OC(C)C(=O)O (stereo not drawn),x,-19.0

(further entries)
mol,MgrA-DNA mod,Sa helicase inh
O=C(Nc1ccccc1C(F)(F)F)c1ccccn1,x,1.0
CCOC(=O)c1cc(C(=O)OC)c(C)nc1NCc1ccc2c(c1)OCO2,x,-13.0
CC1(C)CC2CC(C)(CN2S(=O)(=O)c2cccc(C(N)=O)c2)C1 (stereo not drawn),x,19.0
CCN(CC)C(=O)c1ccccc1Nc1ccc(SC(F)F)cc1,x,10.0
O=C(NCCO)C1=Cc2ccccc2OC1,x,-3.0
COc1ccc(/C=c2\s/c(=C\C(=O)c3ccco3)[nH]c2=O)cc1O,x,-188.0
CN1/C(=C\C=N\NC(N)=S)C(C)(C)c2ccccc21,x,-14.0
O=C1/C(=C\C2CC=CCC2)Cc2ccccc21 (stereo not drawn),0.1,x

Next part
Values run as follows: MgrA-DNA mod	Sa helicase inh
COc1ccc(C(=O)N2CCN(C(=O)c3ccco3)CC2)cc1S(=O)(=O)NCCc1ccccn1
  x	-16.0
CSc1nsc(SCC(=O)C(C)(C)C)n1
  0.0	1.0
O=C(Oc1ccc(OC(=O)c2ccco2)cc1)c1ccco1
  0.2	-9.0
Cc1ccc2[nH]c(=O)c(CN(Cc3ccccc3)C(=O)c3ccco3)cc2c1
  4.3	-2.0
Nc1ccccc1-c1n[nH]c(C2CC2)n1
  x	19.0
Fc1cccc(Cl)c1C=NCc1ccc(Cl)cc1
  3.2	x
COc1ccc(-c2nc3nc4ccccc4nc3n2CC2CCCO2)cc1 (stereo not drawn)
  x	3.0
CCC(CC)NC(=O)C1c2ccccc2Oc2ccccc21
  0.9	3.0
CSc1nc2cc(C3CC3)nn2c(N)c1S(=O)(=O)c1ccc(Cl)cc1
  -0.7	x
Cc1ccccc1Cn1c(C)c(/C=C2\SC(N)=NC2=O)c2ccccc21
  1.5	17.0
CC(C)CC(NS(=O)(=O)c1ccc2c(c1)CCCC(=O)N2)C(=O)N1CCOCC1 (stereo not drawn)
  x	8.0
CN(C1CCCCC1)S(=O)(=O)c1ccc(S(=O)(=O)c2ccccc2)s1
  -0.9	x
COc1ccc2[nH]c3c(=O)n(CCCCC(=O)NCc4ccccc4)c(=S)[nH]c3c2c1
  0.2	-3.0
COC(=O)c1cc2sccc2n1Cc1ccc(Cl)cc1
  x	6.0
CC1CCCN(Cc2c(O)ccc3cc(-c4nc5ccccc5[nH]4)c(=O)oc23)C1 (stereo not drawn)
  x	-87.0
COC(=O)c1ccc(CSc2nc(-c3ccc(OC)cc3)ns2)o1
  1.4	5.0
Cc1ccc(C(=O)c2ccc(Oc3ccccc3)cc2)cc1
  -2.5	7.0
COc1ccccc1/C=C/C=N/NC(=O)c1cc(-c2ccco2)[nH]n1
  x	7.0
Cc1csc2nc(CCNC(=O)CC3CCCC3)cn12
  x	10.0
C=CCn1c(COc2cccc3cccnc23)nnc1SCCC(=O)O
  1.2	-2.0
Nc1nnc(CC(=O)N/N=C/c2cccs2)s1
  2.0	8.0
O=C(CSc1nc2c(c(=O)n1Cc1ccccc1)SCC2)NC1CCCC1
  2.6	10.0
COc1ccc(/C=C2\N=C(c3ccccc3)N(/N=C/c3cccnc3)C2=O)cc1
  1.0	x
OC(COCc1ccc2c(c1)OCO2)CN1CCN(c2ccc(F)cc2)CC1 (stereo not drawn)
  -1.0	15.0
CC1Cc2ccccc2N1c1ncnc2nc[nH]c12 (stereo not drawn)
  x	-5.0
CC(=O)Nc1ccc(NC(=O)C(C)OC(=O)Cc2c[nH]c3ccccc23)cc1 (stereo not drawn)
  x	-2.0
CCOc1ncccc1C(=O)NCc1ccc(S(N)(=O)=O)cc1
  x	-2.0
CSc1sc(-c2ccn[nH]2)c2c1C(=O)CC(C)(C)C2
  0.6	x
CCOC(=O)c1oc2c(c1C)/C(=N/OC(=O)c1ccccc1Cl)CCC2
  -1.3	1.0
Cc1cc(S(=O)(=O)NCc2nn(-c3ccccc3)nc2C)c(C)s1
  -1.8	x

(more compounds)
Values run as follows: MgrA-DNA mod	Sa helicase inh
COc1cc(C=C2C(=O)NC(=O)NC2=O)cc(Cl)c1OCCOc1ccccc1C
  9.7	x
N#Cc1ccc(-c2cn3c(n2)SCC3)cc1
  0.3	x
Cc1onc(-c2c(Cl)cccc2Cl)c1C(=O)OCCOc1ccc(C(F)(F)F)cc1[N+](=O)[O-]
  -0.5	x
Cc1cc(/C=C2\C(=O)NC(=O)N(c3ccccc3)C2=O)c(C)n1-c1cccc([N+](=O)[O-])c1
  1.7	x
CC1(C)C2CCC1(CS(=O)(=O)N1CCCC1C(=O)O)C(=O)C2 (stereo not drawn)
  x	1.0
Cc1ccsc1/C=C/C(=O)O
  -3.6	x
CCOc1cc(C#N)cc(Br)c1OC(=O)c1oc2ccc(OC)cc2c1C
  x	6.0
Cn1c(SCC(=O)N/N=C2/CC3CCC2(C)C3(C)C)nnc1-c1ccco1 (stereo not drawn)
  x	16.0
c1cc(C(N2CCOCC2)N2CCOCC2)ccn1
  -1.1	x
CC(=O)Oc1ccc(N2C(=O)c3cccnc3C2=O)cc1
  x	-1.0
Cn1c(=NC(=O)c2cccc(F)c2)sc2ccccc21
  x	33.0
CC(=O)Oc1ccccc1C(=O)N(C)C
  -2.2	10.0
C=CCn1c2ccccc2c2nnc(SCc3ccccc3F)nc21
  -1.9	9.0
O=C(CSc1nc2ccccc2o1)N=Nc1c(O)n(CN2CCCCC2)c2ccccc12
  x	-16.0
CC(NC(=S)NCCN1CCOCC1)C1CC2CCC1C2 (stereo not drawn)
  x	-3.0
O=C1CC(NCc2ccccc2)C(=O)N1c1ccccc1 (stereo not drawn)
  x	5.0
CCc1ccc2c(c1)c1nc(C)sc1n2C
  x	9.0
c1ccc(CSc2ncnc3sc4c(c23)CCCC4)cc1
  1.8	-15.0
O=C(O)CCCSc1nc2ccccc2s1
  4.1	4.0
N#CC(C(=O)NC1CC1)c1nc2ccccc2nc1N1CCCC1 (stereo not drawn)
  x	-301.0
CC1=C(CC(=O)c2ccccc2)C(=O)c2ccccc2C1=O
  -1.8	x
Cn1nccc1N1C(=O)c2ccccc2C1=O
  0.1	x
O=C(O)CCNC(=O)c1ccccc1Cl
  -3.2	13.0
O=C(C1CCCN1c1nnc(N2CCCC2=O)s1)N1CCc2ccccc2C1 (stereo not drawn)
  x	13.0
COC(=O)NCC(c1cccnc1)N1CCOCC1 (stereo not drawn)
  1.0	-9.0
O=C(Cn1nnc(-c2cccc(C(F)(F)F)c2)n1)c1ccc2c(c1)OCCO2
  x	13.0
O=c1[nH]c2cccnc2n1Cc1ccco1
  x	1.0

Part of the list above, field by field:
> CC(=O)Oc1ccc(N2C(=O)c3cccnc3C2=O)cc1
  MgrA-DNA mod = x
  Sa helicase inh = -1.0
> Cn1c(=NC(=O)c2cccc(F)c2)sc2ccccc21
  MgrA-DNA mod = x
  Sa helicase inh = 33.0

A portion of the library; the hit share may differ from the screen's.
